Screening data: PubChem BioAssay, National Center for Advancing Translational Sciences (NCATS)
HPGD block: qHTS Assay for Inhibitors of HPGD (15-Hydroxyprostaglandin Dehydrogenase); 15-hydroxyprostaglandin dehydrogenase [NAD(+)] (Homo sapiens), P15428; purified HPGD, NADH fluorescence kinetic, PGE2 substrate; Potency, µM, without a hit: at the highest dose activity change, negative = inhibition, most hits filed as inhibitors; hit rate 4.3% among 150,000; AID 894, 2007; active = well fitted inhibition curve with a large enough effect (not every such curve was filed as active); inconclusive = small, poorly fitted or top-dose-only effect, or another doubt; inactive = no such curve, though single readings can be large or run the other way;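 further: top concentration of the series not given in the record; plate controls included wells without enzyme; inactives centre near -10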
Target sequence (P15428 whole entry, looked up): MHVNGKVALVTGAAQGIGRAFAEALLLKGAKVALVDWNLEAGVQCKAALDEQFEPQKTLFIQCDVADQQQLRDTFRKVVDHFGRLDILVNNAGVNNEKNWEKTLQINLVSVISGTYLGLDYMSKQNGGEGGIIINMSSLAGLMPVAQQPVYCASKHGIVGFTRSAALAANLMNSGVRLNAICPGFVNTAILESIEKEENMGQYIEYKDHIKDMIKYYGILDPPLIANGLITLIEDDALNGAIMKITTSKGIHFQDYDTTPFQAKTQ
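20 nM HPGD preincubated 15 min at room temperature with compound in 50 mM Tris-HCl pH 8, 0.01% Tween 20. Started with 1 mM NAD+ and 30 uM prostaglandin E2; NADH fluorescence (360/450 nm) read 5 times over 30-s intervals, last minus first.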
* = called active by the depositor; ? = inconclusive; & = joins results of further samples; [ ] = another dose, or the depositor's remark. On the % scale 0 is the no-effect control and ±100 the full control effect; potency means the concentration at half of the fitted maximal effect. Only part of the results is shown; count on the stated rates, not on these rows.

smiles,HPGD block
Cc1nnc(Nc2ccccn2)c2ccccc12,-17%
O=C(N/N=C\c1cccc(Br)c1)c1ccccc1-n1cccc1,-7%
CC1(C)Cc2ccccc2-c2nnc(SCc3ccc(C#N)cc3)n21,1%
COC(=O)c1nn(-c2ccccc2)c(Cl)c1/C=N/OCc1ccc(C)cc1,-4%
Cc1ccc(CN2C(=O)CCC2C(=O)NCc2cccnc2)cc1 (centres undefined),-11%
COc1ccc(C(=O)CSc2nnc(CN3CCCCC3)n2-c2ccc(F)cc2)cc1OC,-6%
CC(C)(C)c1ccc(C(=O)N/N=C2\C3CN4CCN(C3)CC2(c2ccccc2)C4)cc1,-8%
CN(C(=O)C12CC3CC(CC(C3)C1)C2)C1CCS(=O)(=O)C1 (centres undefined),-9%
COc1ccc2cc(CN(CC3COCCO3)S(=O)(=O)c3ccccc3)c(=O)[nH]c2c1 (centres undefined),40%[activator]
CCC1=C/C(=C\c2ccc3c(c2)OCO3)C(=O)S1,28µM*
CCOCCCNC(=O)c1ccc(NC(C)=O)cc1,-19%
Cc1cc2ccccc2c(=O)n1CC(=O)Nc1ccc2c(c1)OCCO2,-10%
N#CC1=C(N)Oc2c(ccc3ccccc23)C1c1cccs1 (centres undefined),-13%
COc1ccc(-c2cc(C#N)nc(N3CCN(c4ccccc4)CC3)n2)cc1,-17%
COc1ccc(C(=O)N/N=C/c2ccc(SC)cc2)cc1,-2%
COc1ccc(Nc2nnc(SCC(=O)c3cc(C)n(CC4CCCO4)c3C)s2)cc1 (centres undefined),-26%
C/C(=N\NS(=O)(=O)c1ccc(Cl)c([N+](=O)[O-])c1)c1ccc(C)o1,-20%
Cc1nc2ccccc2c2oc(C(=O)NCCCN3CCCC3=O)cc12,-24%
CC(C)(C)n1ncc2c(=O)n(CC(=O)Nc3ccc4c(c3)OCCO4)cnc21,-1%
CCCCCOc1ccc(Cn2ccnc2)cc1[N+](=O)[O-],-1%
O=C(Nc1cccc(C(F)(F)F)c1)C1CCCN(c2ncccn2)C1 (centres undefined),-16%
CCC(C)NC(=O)c1cn(C)c(=O)c2cc(OC)c(OC)cc12 (centres undefined),-26%
Cc1ccc2nsnc2c1N(S(C)(=O)=O)S(C)(=O)=O,-3%
CCN(CC)C(=O)Oc1ccc(Br)c2ccccc12,-4%
CC1(O)C(=O)C=C2C=C(C3CC3)OC=C2C1=O (centres undefined),-2%
N#Cc1ccc(C(=O)Nc2cc(S(=O)(=O)Nc3ccc(Cl)cc3)ccc2N2CCCCC2)cc1,3%
COc1ccccc1NC(=O)C1CCCN(S(=O)(=O)c2cccc3nsnc23)C1 (centres undefined),-4%
O=C1CCN(S(=O)(=O)c2ccccc2)N1,-6%
c1ccc(-c2nc(CSc3nnnn3-c3ccccc3)cs2)cc1,-8%
Cc1cc(C(C)(C)C)oc1C(=O)N(CC(=O)NC1CCCC1)Cc1ccc(F)cc1,-12%
Clc1ccc(-n2c(SC/C=C/c3ccccc3)nnc2-c2cccnc2)cc1,-12%
Cc1ccc(-c2c(C)sc(NC(=O)C3C4CCC(O4)C3C(=O)O)c2C(=O)OC(C)C)cc1 (centres undefined),-14%
CCOC(=O)c1ccc(NCc2ccc(N(C)C)cc2)cc1,-7%
O=C(NCc1ccco1)c1ccc(Cl)c(S(=O)(=O)N2CCc3ccccc32)c1,-6%
CC1CCN(C(=O)CSc2nc3ccccc3[nH]2)CC1,-23%
COCCNC(=O)CCCCCNS(=O)(=O)c1ccc(C)cc1,-14%

Of the compounds above, these have a Cl atom:
smiles,HPGD block
COC(=O)c1nn(-c2ccccc2)c(Cl)c1/C=N/OCc1ccc(C)cc1,-4%
C/C(=N\NS(=O)(=O)c1ccc(Cl)c([N+](=O)[O-])c1)c1ccc(C)o1,-20%
N#Cc1ccc(C(=O)Nc2cc(S(=O)(=O)Nc3ccc(Cl)cc3)ccc2N2CCCCC2)cc1,3%
Clc1ccc(-n2c(SC/C=C/c3ccccc3)nnc2-c2cccnc2)cc1,-12%
O=C(NCc1ccco1)c1ccc(Cl)c(S(=O)(=O)N2CCc3ccccc32)c1,-6%

Later entries:
smiles,HPGD block
COc1ccc(C(=O)Nc2ccc3c(c2)OCO3)cc1OC,-8%
Cc1nn(Cc2ccc([N+](=O)[O-])cc2)c(=O)n1-c1ccccc1,-15%
O=C(CSc1nc2ccccc2o1)Nc1cc(C(F)(F)F)ccc1N1CCOCC1,-4%
CC(C)=CC(=O)OCC(=O)Nc1nc(C)c(Cl)cc1Cl,-5%
CC(N=C(NS(=O)(=O)c1ccc(Cl)cc1)c1ccccc1)C(=O)O (centres undefined),-8%
COc1ccc(S(=O)(=O)N(CCc2ccccc2)CC(=O)O)cc1,-8%
Cc1ccc(NC(=O)c2cc(S(=O)(=O)N3CCOCC3)c(Br)s2)cc1,-12%
CN(CC(CC(=O)Nc1nncs1)c1ccccc1)S(=O)(=O)c1ccccc1 (centres undefined),-4%
CCn1c(SCC(=O)N/N=C/C(C)=C/c2ccco2)nnc1-c1ccccc1,-13%
CN(C)c1ncc2nc(-c3cccs3)c(=O)n(C3CC3)c2n1,?
CCOc1ccc(N=CC2=C(O)CC(C)(C)CC2=O)cc1,-7%
CC(=O)/C(C(=N)N1CCN(C(c2ccccc2)c2ccccc2)CC1)=C(\C)O,-7%
CCc1nnc(NS(=O)(=O)c2ccc(N/C=C\C(=O)c3ccc(C)cc3)cc2)s1,25µM*
Clc1ccc(-c2nc3n(n2)Cc2ccccc2-3)cc1,-13%
COc1ccc(S(=O)(=O)N(CC(N)=O)C2CCCCC2)cc1Cl,-3%
Cn1c(=O)[nH]c(=O)c2c1nc(CN1CCOCC1)n2Cc1ccc(F)cc1,-3%
CC(=O)c1c(N2CCCCC2)nc(=S)n(Cc2ccccc2)c1C,-9%
COc1cc2c(cc1OC)CN(C(=O)c1cc(S(=O)(=O)N3CCOCC3)ccc1Cl)CC2,5%
CCOc1cc(C(c2c(C)[nH][nH]c2=O)c2c(C)[nH][nH]c2=O)ccc1OC(=O)c1cccc([N+](=O)[O-])c1,-10%
Cc1cc(C(=O)CSc2nc3ccccc3n2CCC#N)c(C)n1Cc1cccs1,-16%
Cc1ccnc(N2CCCC(C(=O)Nc3nnc(C)s3)C2)n1 (centres undefined),-15%
CN(C(=O)COc1cc(=O)n(C)c2ccccc12)c1ccc(Cl)cc1,-9%
Cc1ccc(-c2nnc(N(C)C(=O)c3ccncc3)s2)cn1,-3%
O=C(CN1C(=O)S/C(=C/c2cccs2)C1=O)N1CCOCC1,-6%
O=C(CNc1cccc2ccccc12)N/N=C/c1ccc([N+](=O)[O-])o1,-17%
CCOC(=O)c1c(C)n(C)c2ccc(O)c(S(=O)(=O)c3ccccc3)c12,-13%
O=C(COc1ccccc1)Nc1ccc(-c2nnc(-c3ccco3)o2)cc1,?
CC1=CC2=NC(=O)CC(C)(C(=O)N(CC(=O)NC(C)(C)C)Cc3cccs3)N2C=C1 (centres undefined),?
Cc1ccc(C(=O)NCc2ccco2)cc1Br,-30%
CCC(=O)N1CCc2cc(S(=O)(=O)NC(CC(C)C)C(=O)N3CCc4ccccc43)ccc21 (centres undefined),-5%
CN(C)/C(CN1CCOCC1)=C1\N=C(c2ccccc2)OC1=O,-15%
COc1ccccc1OCCn1cc(/C=C(\C#N)C(=O)NCc2ccco2)c2ccccc21,-6%
COc1ccc(OC)c(C(=O)c2coc3ccc(OC)cc23)c1,?
COc1ccc(Nc2ncnc3sc(-c4ccccc4)cc23)cc1OC,?
CSc1nnc2n(-c3ccc(C)cc3)c(=O)c3c4c(sc3n12)COC(C(C)C)C4 (centres undefined),-2%
CCCCOc1ccc(C(=O)N/C(=C\c2cccc([N+](=O)[O-])c2)C(=O)OC(C)C)cc1,-4%
Cc1cc(C)c(NS(=O)(=O)c2ccc(NC(=O)/C=C/C(=O)O)cc2)c(C)c1,?
CNC(=O)[C@H](C)/C=C/C(NC(=O)OCc1ccccc1)c1ccc(C(=O)OC)cc1 (some centres undefined),-5%
CC(C)(Oc1ccc(Cl)cc1)C(=O)OCn1nnc2ccccc2c1=O,?
CCCCNC(=S)NNC(=O)c1sccc1C,-10%
CCC(=O)c1cc(F)c(N2CCN(S(=O)(=O)c3ccc(C)cc3)CC2)cc1C,-19%
COC(=O)c1ccc(C)c(NC(=O)CCc2ccc(OC)cc2)c1,-27%
CCn1c(=O)cc(OCC(=O)N(C)C2CCCCC2)c2ccccc21,-10%
CC(=O)c1c(N2CCCCC2)nc(=S)n(-c2ccccc2)c1C,-3%
O=C(CC12CC3CC(C1)CC(CC(=O)N1CCCC1)(C3)C2)N1CCCC1,-20%
Cc1cccc(Cn2ncc(Cl)c(Cl)c2=O)c1,-11%
Cc1cc(NC(=O)CN2C(=O)NC(Cc3ccccc3)C2=O)no1 (centres undefined),-4%
COc1ccc(C(=O)NNS(=O)(=O)c2ccc(C)cc2)cc1,-7%
COc1ccc(NC(=O)CC2SC(=NCc3ccccc3OC)NC2=O)cc1 (centres undefined),0%
Cc1cc(/C=N/n2c(COc3ccccc3C)nc3ccccc3c2=O)c(O)c([N+](=O)[O-])c1,1µM*
CCCCC/C=C\CC(O)/C=C/c1cccc(CC(O)CCCCO)n1 (centres undefined),-23%&-7%
O=C1C2CCCN2C(=O)N1CCCCN1CCN(CCO)CC1 (centres undefined),0%
CCOC(=O)CSC(C)C(=O)Nc1nnc(C(C)C)s1 (centres undefined),-8%
O=c1c2cn[nH]c2[nH]c(=S)n1-c1ccccc1F,-3%
COc1ccc(NC(=S)N(Cc2ccc(N(C)C)cc2)Cc2ccco2)cc1,-25%
Cc1ccc(SCC(=O)NCCSC(C)(C)C)cc1,-22%
COc1ccc(OC)c(-c2cc(C(=O)NCc3ccco3)no2)c1,?
O=C(NC1CCCCCCC1)c1c(O)c2ccccc2[nH]c1=O,-13%
Cc1ccc(NC(=O)N2CCOCC2)c(C)c1,-4%
COc1ccc(Nc2nc(N)nc(CN3CCN(c4ccccn4)CC3)n2)cc1,-20%

Two entries from above, with each value named.
O=C1C2CCCN2C(=O)N1CCCCN1CCN(CCO)CC1 (centres undefined)
  HPGD block: 0%

CCOC(=O)CSC(C)C(=O)Nc1nnc(C(C)C)s1 (centres undefined)
  HPGD block: -8%

Following part
smiles,HPGD block
Cc1csc(NC(=O)CSc2nnc(NC(=O)C3CC(=O)N(c4ccccc4)C3)s2)n1 (centres undefined),-7%
CC(=O)C1=C(O)C(=O)N(Cc2cccnc2)C1c1ccccc1 (centres undefined),-9%
Nc1nc2ccc(N3CCOCC3)cc2s1,-1%
O=C(NCC1CCCO1)c1cccs1 (centres undefined),?
CCOc1cc(C(=O)N/N=C/c2ccsc2)cc(OCC)c1OCC,-4%
CC(C)NC(=O)CCNC(=O)c1ccc(F)cc1,-6%
O=S(=O)(ON(c1ccccc1)S(=O)(=O)c1ccccc1)c1ccccc1,-6%
CC(C)CC(=O)NC(=S)Nc1ccc(NC(=O)c2cccs2)cc1,7.9µM*
COc1ccc(CNC(=O)CSc2nnnn2-c2ccc(O)cc2)cc1,-2%
Cc1ccc(CNC(=O)c2ccccc2CCc2ccccc2)cc1,-19%
CC1=CC(=C2N=C(c3ccccc3)OC2=O)C=C(C)O1,-2%
O=C(O)CCCC(=O)Nc1ccccc1-n1ccnc1,-16%
CN1C=CC=C/C1=C1\SC(=S)N(C2CCCCC2)C1=O,-14%
Cc1cc(C)nc(NS(=O)(=O)c2ccc(NC(=O)Cn3c(=O)oc4ccccc43)cc2)n1,-12%
CCNC(=S)NN=C1CCC(C(C)(C)C)CC1 (centres undefined),-22%
CCOC(=O)c1ccc(-n2ccnc2)c(NC(=O)c2ccc(Cl)cc2)c1,-10%
Cc1ccc2cc(CCNC(=O)c3ccc4c(c3)OCO4)c(=O)[nH]c2c1,-20%
Cc1cc(=O)n(CCc2ccccc2)c(O)c1C#N,-17%
Cc1ccnc(NC(=O)c2ccc(N3C(=O)CCC3=O)cc2)c1,-11%
Cc1cc2n(c(=O)c1C#N)CCCN2c1cccc(Cl)c1,?
CC(=O)Nc1ccc(NCN2C(=O)C3C4CCC(C4)C3C2=O)cc1 (centres undefined),7%
COc1ccc(CNC(=O)Cn2cc3c(n2)CCCCC3)cc1,1%
Cc1cc(Oc2ccc(-c3nnc(-c4ccccc4)o3)cc2[N+](=O)[O-])ccc1Cl,-4%
O=C(NCc1ccc(F)cc1)c1cnn2ccccc12,3%
Cc1cc(OCc2nn[nH]n2)c2c(C)c(CC(=O)O)c(=O)oc2c1,?
Cc1cc(-c2csc(NC(=O)c3cc4ccccc4o3)n2)c(C)n1C,-17%
O=C(c1ccccc1-c1nc(-c2ccc(Cl)cc2)no1)N1CCCC1,-11%
Nc1ccc(Nc2ccccc2N)cc1,?
O=C1CCCCC1C(Nc1ccc(Br)cc1)c1ccccc1 (centres undefined),-13%
COc1ccnc(Oc2ccc(C)cc2C)c1C#N,-5%
CCCCCCCCS(=O)c1sc2nc(C)cc(C)c2c1N (centres undefined),?
C=CCn1c(SCCC)nc(O)cc1=O,-11%
